AID923: qHTS Assay for Allosteric/Competitive Inhibitors of Caspase-1: Spectroscopic Profiling in AFC Spectral Region. actives 1.1% (n = 75,000). AID 923, 2007. compound fluorescence, AFC spectral region (405/520 nm); almost no hit is shown here. Potency, µM (top dose mostly 57.5 µM), without a hit: at the highest dose fluorescence increase, actives largely listed as activators; active = well fitted activation curve with a large enough effect; inconclusive = small, poorly fitted or top-dose-only effect;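 also: potency is read from the fitted curve at half-maximal effect; 0% is about no effect; scaled to a free AFC standard on each plate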
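Titrations up to 57 uM read every 20 sec for 3 min (405/520 nm) with 50 nM caspase 1 and 5 uM Ac-WEHD-AFC, pH 7.5 HEPES buffer. Fluorescence-vs-time intercept gave baseline, scaled against on-plate AFC standard.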
A647 fluor: qHTS Assay for Spectroscopic Profiling in A647 Spectral Region. max dye-equivalent concentration, M. Compound fluorescence, A647 channel (570/671 nm), Tris buffer. 59,000 tested, under 10 active; active means above 1 µM dye equivalent; inconclusive means 0.1 to 1 µM; inactive means 0.1 µM or less;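 also: values scaled relative to a standard on each plate; highest value over a series up to 38 µM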
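Compounds pinned into 100 mM Tris pH 8.0, 15 min at room temperature, then read with 570 nm excitation/671 nm emission filters. Fluorescence normalized to an on-plate six-point Alexa 647 standard curve, giving dye-equivalent concentration per compound concentration.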
TSHR agonist: qHTS Assay for Agonists of the Thyroid Stimulating Hormone Receptor | actives 0.48% (n = 73,000) | Potency, µM (titrated, usually from 57.1 µM), inactives show at the top dose activation, usual class: activators | AID 926, 2007 | HEK293-CNG-TSHR cells (CNG channel as cAMP sensor), membrane potential dye, cAMP | Thyrotropin receptor (Homo sapiens), P16473; active = well fitted activation curve of enough size with the parental cells flat; inconclusive = any curve in the parental cells; inactive = parental cells flat and receptor cells flat or falling; also: potency is read from the fitted curve at half-maximal effect; % of control where 0% means no effect; weak receptor curves with flat parental cells got no call and are not listed
Target sequence (P16473 whole entry, looked up): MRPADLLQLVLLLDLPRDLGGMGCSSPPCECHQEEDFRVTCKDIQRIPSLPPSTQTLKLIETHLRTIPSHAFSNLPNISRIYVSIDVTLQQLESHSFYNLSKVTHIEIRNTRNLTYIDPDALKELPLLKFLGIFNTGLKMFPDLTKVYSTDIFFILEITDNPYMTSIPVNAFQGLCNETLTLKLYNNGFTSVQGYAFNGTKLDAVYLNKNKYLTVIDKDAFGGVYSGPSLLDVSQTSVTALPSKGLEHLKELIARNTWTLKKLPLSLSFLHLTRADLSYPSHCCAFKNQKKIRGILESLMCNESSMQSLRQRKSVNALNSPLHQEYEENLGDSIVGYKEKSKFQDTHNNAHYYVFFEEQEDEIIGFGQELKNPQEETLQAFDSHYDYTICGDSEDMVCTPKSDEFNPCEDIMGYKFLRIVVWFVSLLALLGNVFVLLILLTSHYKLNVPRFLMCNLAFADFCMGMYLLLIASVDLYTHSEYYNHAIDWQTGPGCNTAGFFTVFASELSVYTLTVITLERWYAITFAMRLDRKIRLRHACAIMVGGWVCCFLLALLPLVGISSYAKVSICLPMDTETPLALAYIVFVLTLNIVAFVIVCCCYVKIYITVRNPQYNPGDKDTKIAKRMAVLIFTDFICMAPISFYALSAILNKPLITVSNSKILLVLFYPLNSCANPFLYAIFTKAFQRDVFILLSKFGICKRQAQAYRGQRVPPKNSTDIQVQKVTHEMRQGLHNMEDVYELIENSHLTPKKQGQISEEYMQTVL
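HEK 293 cells stably expressing TSHR and a cAMP-gated CNG channel; parental CNG-only cells as counterscreen. Cells preloaded 60 min with membrane potential dye plus 100 uM RO 20-1724, then compound 30 min; fluorescence read at 590 nm.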
Resorufin fluor: qHTS Assay for Spectroscopic Profiling in Resorufin Spectral Region; Compound fluorescence, resorufin region 547/598 nm, buffer; hits give high values; AID 588, 2007; max dye-equivalent concentration, M; actives 0.04% (n = 59,000); active = above 10 nM dye equivalent; inconclusive = 1 to 10 nM; inactive = 1 nM or less; a few of its hits are not listed in these tables; also: highest value over a series up to 38 µM
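Read-out: intrinsic compound fluorescence at ex 547/em 598 nm after 15 min at RT in pH 8.0 Tris (100 mM). Values expressed as resorufin-equivalent concentration from per-plate standard series.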
A488 autofl: qHTS Assay for Spectroscopic Profiling in A488 Spectral Region; compound autofluorescence, A488 spectral region, dye equivalency; hits give high values; max dye equivalency, M; actives 0.1% (n = 59,000); AID 591, 2007; active = above 10 nM dye equivalent; inconclusive = 1 to 10 nM; inactive = 1 nM or less; about half of its hits are not listed in these tables;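 also: highest value over a series up to 38 µM; compound alone in buffer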
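Autofluorescence read at ex 480/em 540 nm after 15 min RT in 100 mM Tris pH 8.0; compound signal normalized to A488 standard series on each plate, reported as dye-equivalent concentration at each test concentration.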
Starred values were filed as active, the others as inactive; i = inactive; ? = inconclusive; . = not tested or not shown; & = joins results of further samples; [ ] = another dose, or the depositor's remark.

mol	Resorufin fluor	TSHR agonist	A488 autofl	A647 fluor	AID923
O=C(NCc1ccccc1Cl)C1CCN(S(=O)(=O)N2CCCCCC2)CC1	i	8.2%	i	1.3e-08	1.1%
O=C(OCCCN1C(=O)c2ccccc2C1=O)c1ccco1	i	-0.8%	i	3.4e-09	-3.6%
COC(=O)C(C#N)c1nc2ccccc2nc1N1CCCC1 (stereo not drawn)	i	0.3%	i	1e-09	13.1%
CC(=O)c1c(C)[nH]c(C(=O)CSc2nnc(-c3ccco3)n2Cc2ccccc2)c1C	i	14.8%	i	3.09e-08	3.3%
CN1CCN(Cc2nc3c([nH]2)c(=O)[nH]c(=O)n3C)CC1	i	1.1%	i	2.69e-08	1.6%
COCCNc1nc(-c2ccc(N(C)C)cc2)nc2ccccc12	i	?	i	1e-09	2.5%
COC(=O)C(C(=O)OC)C(C(C)C)C(C(=O)OC)C(=O)OC	.	7.4%	.	.	0.0%
CCCn1c(C)nc2c(NCCCN3CCCCC3C)nc(C)nc21 (stereo not drawn)	.	1.1%	.	.	-0.6%
Cc1ccc2nc(-c3ccc(NC(=O)c4ccc(N)cc4)c(S(=O)(=O)O)c3)sc2c1	i	4.8%[11.4 µM]	i	5.13e-08	6.0%[11.5 µM]
c1ccc(Cn2nnnc2C(c2cccs2)N2CCOCC2)cc1 (stereo not drawn)	i	5.1%	i	2.95e-08	0.4%
Cc1ccc(S(=O)(=O)N2CCCC(C(=O)N(Cc3cccs3)C3CC3)C2)cc1 (stereo not drawn)	i	?	i	1e-09	0.2%
O=C(O)c1cc(=O)cc(C(=O)O)[nH]1	i	-8.3%&3.7%	i	3.68e-08&4.33e-08	-1.0%&-2.0%
Cn1c(=O)c2c(nc(SCc3cccnc3)n2Cc2ccc(F)cc2)n(C)c1=O	i	3.8%	i	1.69e-08	-1.4%
Brc1cccc(-c2n[nH]c(-c3ccccc3)n2)c1	i	?	i	1e-09	0.8%
COC(=O)CSC1=C(C#N)C(c2ccc(Cl)cc2)C(C(=O)OC)C(=O)N1 (stereo not drawn)	i	17.3%	i	4.24e-08	0.5%
CCOC(=O)N1CCN(C(=O)CSc2nnc(Cc3ccccc3)o2)CC1	.	-1.0%	.	.	-0.6%
Cc1cccc(C)c1NC(=O)CSc1nnc([C@H](C)NC(=O)OC(C)(C)C)o1	i	.	i	1.8e-09	-0.6%
Cn1c(=O)cc(OCCCC(=O)NCc2ccccn2)c2ccccc21	i	-2.1%[11.4 µM]	i	9.8e-09	-0.1%
NCCC(=O)O	.	4.6%	.	.	0.2%
CC(c1ccccc1)n1cc(C(=O)NCc2ccncc2)nn1 (stereo not drawn)	i	-0.9%	i	3.4e-09	0.5%
CC(C)(C)N1CC(COc2ccccc2)OC1=O (stereo not drawn)	i	-13.3%	i	2.2e-09	-0.9%
Nc1nonc1-c1noc(-c2ccccc2)n1	i	.	i	2.99e-08	.
C[C@]12CC[C@H]3c4ccc(O)cc4CC[C@@H]3[C@H]1CC[C@@H]2OC(=O)CCc1ccccc1	i	0.2%[11.4 µM]	i	2.6e-08	-2.0%[11.5 µM]
O=C(CCn1c(=O)oc2ccccc21)NCCCN1CCCC1=O	.	3.5%	.	.	2.7%
CCOc1ccc(C2C(C#N)=C(N)Oc3nc[nH]c(=O)c32)cc1OC (stereo not drawn)	i	-6.5%	i	5.7e-09	1.1%
O=C(CN1C(=O)c2ccccc2S1(=O)=O)Nc1cccnc1	i	14.5%	i	1.9e-09	-0.2%
CN(C)C(=O)Cn1c(=O)n(C)c2ccccc21	i	0.5%	i	1e-09	4.1%
CCOCCCn1c(=S)[nH]c2ncccc2c1=O	i	0.6%	i	1e-09	0.8%
COC(=O)c1cc(=O)nc2sc3ccccc3n12	i	-6.5%	i	2.7e-09	0.1%
COC(=O)C1(CCSC)NC(c2ccco2)C2C(=O)N(C)C(=O)C21 (stereo not drawn)	i	?	i	1.9e-09	-2.0%
C1CCc2c(nc3nnnn3c2N2CCOCC2)C1	i	-2.5%	i	1.8e-08	0.5%
Cc1ccc(CO)cc1	.	-0.7%	.	.	2.5%
O=C(COc1ccc2ccccc2c1)N1CCN(c2ccccc2O)CC1	i	4.3%	i	3e-09	0.4%
COc1ccc(-n2ncc3c(NCC(C)C)ncnc32)cc1	.	29.3%	.	.	-1.2%
CCOC(=O)c1cn(CC)c2cc(N3CCOCC3)c(F)cc2c1=O	.	24.8%[11.4 µM]	.	.	0.6%
CC(=O)O[C@]1(C(C)=O)CC[C@H]2[C@@H]3C=C(C)C4=CC(=O)CC[C@]4(C)[C@H]3CC[C@@]21C	i	.	i	1e-09	.
O=C(CCc1nc2ccccc2[nH]1)NCc1ccc2c(c1)OCO2	.	0.1%	.	.	-1.4%
CCOc1ccccc1N1CCN(c2nc3ccccc3nc2C(C#N)C(=O)OC)CC1 (stereo not drawn)	i	.	i	2.61e-08	.
Cc1cccc(NC(=O)C2CCCN(c3nc(C)cc(C)n3)C2)c1 (stereo not drawn)	i	?	i	1e-09	0.1%
Cn1nc(OCC(N)=O)ccc1=O	i	-3.7%	i	8.2e-09	-0.7%
CC(=O)Nc1ccc(S(=O)(=O)NC(CC(=O)O)c2ccc(OC(C)C)cc2)cc1 (stereo not drawn)	i	-1.5%[11.4 µM]	i	3.75e-08	1.0%
O=C(CSc1nnc2sc3ccccc3n12)c1ccco1	i	3.9%	i	2.79e-08	-0.5%
COc1ccc(S(=O)(=O)NCCC(=O)NC2CCCCCCC2)cc1	i	-1.1%	i	1e-09	-1.2%
O=C(Nc1nsc(-c2ccccc2)n1)c1ccncc1	i	-3.6%[11.4 µM]	i	4.44e-08	-0.8%
COc1cc(C(N)=O)ccc1OCc1ccccc1	i	0.3%	i	1e-09	0.8%
N#Cc1c2ncn(CC(=O)c3ccc(Br)cc3)c(=O)c2c2n1CCC2	i	10.5%	i	2.98e-08	0.6%
Cn1c(=O)n(C)c2cc(S(=O)(=O)NCc3ccccc3)ccc21	i	4.8%	i	1.13e-08	-0.3%
CCC(C)c1ccc2oc(-c3ccc(NC(=O)Cn4cnc5c(=O)n(C)c(=O)n(C)c54)cc3)nc2c1 (stereo not drawn)	i	-3.6%	i	1.32e-08	-1.3%
Cc1nnc(SCC(=O)N2CCOCC2)s1	i	3.8%	i	1.94e-08	-2.0%
O=C(NCc1nc2ncc(Br)cc2[nH]1)c1ccccc1	i	8.1%	i	1e-09	3.4%
N[C@H](C(=O)N[C@@H]1C(=O)N2C(C(=O)O)=C(Cl)CS[C@@H]12)c1ccccc1	i	-19.2%[25.6 µM]	i	3e-09&1e-09&9.4e-09	4.2%[25.7 µM]
Cc1ccc(NC(=O)CCn2c(=O)oc3ccccc32)c(C)c1	i	3.1%	i	1.32e-08	-1.6%
CC(C)(C)NCC[C@@H](O)c1cc(C(F)(F)F)nc2c(C(F)(F)F)cccc12	i	2.7%[11.4 µM]	i	3.31e-08	-2.3%[11.5 µM]
CCOc1ccccc1C(=O)NCc1ccco1	i	.	i	4.67e-08	2.0%
CCCCn1nc(C(=O)N2CCc3ccccc32)c2ccccc2c1=O	i	?	i	1e-09	1.0%
N#Cc1c(N)nc(N2CCCC2)c(C#N)c1-c1ccc(Cl)cc1	i	-0.7%[11.4 µM]	i	1e-09	4.2%

More records:
mol	Resorufin fluor	TSHR agonist	A488 autofl	A647 fluor	AID923
CCOC(=O)NC(O)C(=O)c1cccs1 (stereo not drawn)	i	.	i	1e-09	.
CCC/C=C(\CCC)C(NS(C)(=O)=O)c1ccccc1 (stereo not drawn)	.	18.6%	.	.	1.2%
O=C1C2C3C=CC(C3)C2C(=O)N1CCCCN1C(=O)C2C3C=CC(C3)C2C1=O (stereo not drawn)	i	0.0%	i	1e-09	0.0%
Cc1ccc2nc3c(cc(C(=O)NCCCn4ccnc4)n3C)c(=O)n2c1	i	9.2%	i	3.13e-08	2.1%
O=C(c1cccs1)c1cn(CC(=O)N2CCc3ccccc3C2)c2ccccc12	i	12.6%	i	2.9e-09	2.0%
CCC(=O)Nc1ccc2c(c1)nc1n2CCSC1	i	5.5%	i	1.32e-08	3.5%
COc1ccccc1NC(=O)CSc1nnc(-c2ccncc2)n1CC1CCCO1 (stereo not drawn)	i	-5.5%[11.4 µM]	i	2.56e-08	-1.0%
CCOC(=O)C(C)Sc1nc2c(c(=O)[nH]c(=O)n2C)n1Cc1ccc(Cl)cc1 (stereo not drawn)	.	5.9%[11.4 µM]	.	.	-2.0%

Compound profiles, from the list above:
CCC/C=C(\CCC)C(NS(C)(=O)=O)c1ccccc1 (stereo not drawn) is listed with Resorufin fluor = .; TSHR agonist = 18.6%; A488 autofl = .; A647 fluor = .; AID923 = 1.2%
CCC(=O)Nc1ccc2c(c1)nc1n2CCSC1 is listed with Resorufin fluor = i; TSHR agonist = 5.5%; A488 autofl = i; A647 fluor = 1.32e-08; AID923 = 3.5%

(further entries)
mol	Resorufin fluor	TSHR agonist	A488 autofl	A647 fluor	AID923
N#CCCn1c(SCC(=O)NCCc2ccc(F)cc2)nc2ccccc21	i	-2.4%	i	2.16e-08	0.0%
O=C(NCC1(N2CCOCC2)CCCCC1)c1ccc(Cl)c(S(=O)(=O)NCc2ccco2)c1	i	9.7%[11.4 µM]	i	1e-09	0.1%
CCOc1ccc(/C(O)=C2/C(=O)C(=O)N(c3nc(C)c(C)s3)C2c2ccco2)cc1 (stereo not drawn)	i	.	i	2.7e-09	.
COc1cccc(OCCOc2c(OC)cccc2OC)c1	i	18.6%	i	2.88e-08	0.4%
Cc1ccc(C)c(-n2c(CNC(=O)c3ccco3)nnc2SCC(=O)Nc2nccs2)c1	i	1.0%	i	1.29e-08	1.0%
Nc1nc(CN2CCN(c3cccc(Cl)c3)CC2)nc(N2CCCc3ccccc32)n1	i	.	i	9.8e-09	1.5%
O=C(c1cc(-c2ccccc2)on1)N1CCN(Cc2ccc3c(c2)OCO3)CC1	i	4.1%	i	2.67e-08	-1.3%
c1cncc(-c2nc(-c3ccc4c(c3)OCO4)cs2)c1	i	4.9%	i	1e-09	1.1%
Cc1ccccc1Oc1ccc(Oc2ccccc2C)nn1	i	?	i	4.01e-08	-0.4%
Cn1c(=O)c(-c2ccc(Cl)cc2)nc2cnc(Nc3ccccc3)nc21	i	3.3%	i	1e-09	9.4%
c1ccc2[nH]c(NCCN3CCOCC3)nc2c1	i	5.1%	i	1e-09	0.4%
CS(=O)(=O)N(CC(=O)O)c1ccc2c(c1)OCO2	i	0.4%	i	2.8e-09	-1.2%
COC(=O)N1CC=CC1(C)C(=O)O (stereo not drawn)	.	13.2%	.	.	0.2%

Screens (PubChem)

An excerpt; count on the stated rates, not on these rows.
